Compound activity deposited in PubChem BioAssay by The Scripps Research Institute Molecular Screening Center.
OX1R antagonist – antagonists of human orexin 1 receptor | O43613 | CHO/OX1R cells, Fluo-8 calcium fluorescence, orexin A | inhibition, % at 5 µM | 0.43% of 330,000 active | AID 434989;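 active = inhibition above its plate's threshold, mean inhibition of all tested compounds on the plate plus 3 SD, cut at about 37% in these data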;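 also: 0% = orexin A challenge wells and 100% = SB-334867-A antagonist wells; not every result past the cut was called active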
Target sequence (O43613 whole entry, looked up): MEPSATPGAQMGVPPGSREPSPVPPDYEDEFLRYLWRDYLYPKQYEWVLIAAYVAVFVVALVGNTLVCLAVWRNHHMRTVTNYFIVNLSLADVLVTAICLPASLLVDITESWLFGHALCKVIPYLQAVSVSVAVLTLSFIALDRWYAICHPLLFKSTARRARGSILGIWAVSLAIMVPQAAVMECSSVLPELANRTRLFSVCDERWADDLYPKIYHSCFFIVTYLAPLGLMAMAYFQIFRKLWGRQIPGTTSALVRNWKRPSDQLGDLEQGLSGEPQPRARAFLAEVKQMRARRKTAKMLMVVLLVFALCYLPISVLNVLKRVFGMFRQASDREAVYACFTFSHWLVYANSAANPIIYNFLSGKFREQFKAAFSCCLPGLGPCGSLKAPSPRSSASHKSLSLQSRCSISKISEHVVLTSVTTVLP
* = called active by the depositor. This is a subset, and most or all hits are left out here.

mol	OX1R antagonist
COc1ccccc1CNC(=O)c1cccc(NC(=O)c2ccccc2)c1	-17
O=C(COC(=O)c1cnccn1)c1ccc2ccccc2c1	-12
COc1ccc(NC(=O)C(=O)NCc2ccncc2)c(OC)c1	-3
CC(C)c1csc(CN2CCN(Cc3ccc(F)cc3)C(CCO)C2)n1 (centres undefined)	-32
COc1ccc(/C=C(\C#N)C(=O)OCCNC(=O)c2ccncc2)cc1	-14
O=C(NN1C(=O)c2ccccc2NC1c1ccc([N+](=O)[O-])o1)c1ccc(Br)cc1 (centres undefined)	-24
COc1ccc(OC)c(C2N(c3ccccn3)C(=O)C3CCCN32)c1 (centres undefined)	-25
Clc1cccc(-c2nnc(-c3ccccc3)o2)c1	-28
C/C(CC(=O)Nc1ccc(Cl)cc1Cl)=N\NC(=O)c1ccncc1	-35
CCN1C(=O)C(CC(=O)Nc2ccc(OC)cc2)N(Cc2cccnc2)C1=S (centres undefined)	1
Cc1ccc(OCC(=O)Nc2ccc3c(c2)C(=O)N(CCC(=O)O)C3=O)cc1	-8
COC(=O)C1=C(C)N(C(C)C)C(=O)C1(NC(=O)C1CCCCC1)C(F)(F)F (centres undefined)	6
COc1ccc(OC)c(-c2nnc(SCC(=O)N3CCOCC3)o2)c1	-19
COC(=O)c1sccc1NC(=O)Nc1cccc(OC)c1	-18
CC(C)COC(=S)Nc1ccccc1	0
Cc1nn(C)c(C(=O)N/N=C/c2ccc(Br)cc2)c1Cl	-5
c1cnc2ccc3ncccc3c2c1	-19
CCOc1cc(N2CCOCC2)c(OCC)cc1NC(=O)COC(=O)CCc1c[nH]c2ccccc12	-22
CCCc1[nH]nc2c1C(c1ccc(OC(=O)c3ccco3)cc1)C(C#N)=C(N)O2 (centres undefined)	1
COc1ccccc1OCC(=O)Nc1ccc(S(=O)(=O)Nc2nccs2)cc1	-8
Cc1cc(NC(=O)Cc2cccs2)nn1CC(=O)NCc1ccco1	-13
CCOC(=O)c1[nH]ncc1CN1CCCC(C(=O)c2ccc(SC)cc2)C1 (centres undefined)	-26
O=C(N/N=C/c1cccnc1)c1cc(-c2ccccc2Cl)nc2ccccc12	-34
CCOc1ccc(CN2CCNC(=O)C2CC(=O)NCc2csc(C)n2)cc1 (centres undefined)	-8
CCn1c(SCC(=O)N2CCOCC2)nnc1-c1ccco1	-22
Cc1ccc(NC(=O)c2cc(-n3cnnc3)ccc2Cl)cc1	-9
Cc1cc(-c2cn3ccccc3n2)c(C)n1-c1ccccc1	-38
COc1cc(/C=N/NC(=O)CN2CCCCC2)ccc1OCc1ccccc1	-20
CC(=O)c1c[nH]c(C(=O)NCc2cccc(C(F)(F)F)c2)c1	-21
CCOC(=O)c1c(-c2ccccc2)cn2ccccc12	7
CCOC(=O)C1(CC2CCCCO2)CCN(S(=O)(=O)c2ccc(OC)cc2)CC1 (centres undefined)	-37
Clc1cccc(CN2CCSCC2)c1	-8
CCOP(=O)(NC12CC3CC(CC(C3)C1)C2)NC12CC3CC(CC(C3)C1)C2	6
Cc1ccc(-c2nnn(CC(=O)NCC3COCCO3)n2)o1 (centres undefined)	-7
O=C(/C=C/c1ccccc1)Nc1ccc(S(=O)(=O)N2CCOCC2)cc1	-23
Cc1ccc(C)c(N(CC(=O)N2CCCCCC2)S(C)(=O)=O)c1	-9
COc1ccc(/C=N/NC(=O)CCn2cnc(-c3ccccc3)c2-c2ccccc2)cc1OC	-40
CC1(C)CC(=O)C2=C(C1)N(Cc1cccnc1)C(=O)C2(NC(=O)C1CC1)C(F)(F)F (centres undefined)	-20
COc1ccc(CNC(=O)Nc2ccc(OC)cc2)cc1	-6
CCN(CC)C(=O)CP(=O)(c1ccccc1)c1ccccc1	-10

3 entries out of the list above, arranged by their value in OX1R antagonist, highest first:
mol	OX1R antagonist
COc1ccc(NC(=O)C(=O)NCc2ccncc2)c(OC)c1	-3
Clc1cccc(CN2CCSCC2)c1	-8
Cc1cc(-c2cn3ccccc3n2)c(C)n1-c1ccccc1	-38

Continued:
mol	OX1R antagonist
COc1ccc(CN2CCNC(=O)C2CC(=O)NCCSc2nccn2C)c(OC)c1 (centres undefined)	-6
Cc1nn(C(=O)/C(C#N)=C/N(C)C)c(C)c1C	2
CCN(CC)C(=O)Cn1cnc2sc(C(=O)N3CCN(c4ccc(OC)cc4)CC3)c(C)c2c1=O	-18
OCCCNc1c2c(nc3cc(-c4ccc(Cl)cc4)nn13)CCC2	-4
N#Cc1ccccc1NC(=O)COC(=O)CCc1ccccc1	-25
O=C1CCCN1CN(C(=O)c1ccccc1)c1ccc(F)cc1	-17
NS(=O)(=O)c1ccc(NC(=O)CSc2nc3ccccc3n2-c2ccccc2)cc1	-11
COc1ccccc1C(=O)NCC(=O)NC(C)c1ccc(-n2ccnc2)cc1 (centres undefined)	-21
COc1ccccc1/C=C/C(=C1/C(=O)N(c2ccccc2)N=C1C)c1ccc(C)cc1	-2
CSc1nnc(NC(=O)c2nc(S(=O)(=O)Cc3ccccc3F)ncc2Cl)s1	-11
CCOC(=O)c1c(NC(=O)c2ccc(Br)o2)sc2c1CCCC2	-7
O=C(C1CCN(c2nnnn2-c2ccccc2)CC1)N1CCN(c2ccccc2)CC1	-18
Nc1nc(SCc2ccccc2)ns1	-10
CCCCc1cc(=O)oc2cc(C)cc(OC(C)C(=O)NCC3CCC(C(=O)O)CC3)c12 (centres undefined)	-23
O=C(c1cnccn1)N(c1ccccc1)C1(C(=O)NC2CCCC2)CCCCC1	-13
CN(C)CC(C)(C)CNC(=O)c1cc(Br)cc(Br)c1O	-15
CCN(CC)S(=O)(=O)c1ccc(NC(=O)C(C)N(c2ccc(OC)cc2)S(C)(=O)=O)cc1 (centres undefined)	-17
O=C(CCNC(=O)c1ccc(Br)cc1)Nc1ccc(S(=O)(=O)Nc2ncccn2)cc1	-19
C=C1CCN([C@H](C(=O)NCc2ccco2)C(C)C)S(=O)(=O)c2ccccc21	-20
CCOc1ccccc1C(=O)N1CCN=C1SCc1cccnc1	-13
Cc1cc(N2C(=O)C(O)=C(C(=O)c3ccc(C)o3)C2c2cccc(Oc3ccccc3)c2)no1 (centres undefined)	-20
CCn1cc(CNC(=O)c2cccc([N+](=O)[O-])c2)c(C)n1	-20
Cc1ccc(S(=O)(=O)c2nc(C)oc2NCc2ccccc2)cc1	-3
Cc1cc(C(=O)NCc2cc(C(=O)O)oc2C)c(C)o1	20
COc1ccc(-c2cc(-c3ccccc3)no2)cc1	-37
O=S(=O)(Cc1ccccc1)Nc1ccc(S(=O)(=O)N2CCCC2)cc1	-11
COC(=O)CCCC1=CC2=C(c3ccccc3)C(=O)C(C)(OC(=O)C3CCCC3)C(=O)C2=CN1CCN1CCOCC1 (centres undefined)	-24
O=C(/C=C/c1ccco1)Oc1ccc(C(=S)N2CCOCC2)cc1	-24
COc1ccccc1NC(=O)CSc1nnc(-c2ccoc2C)n1CC1CCCO1 (centres undefined)	-14
CCCCNC(=O)N1CCN(c2ccccc2OC)CC1	-16
COc1ccc(C2=CC(=O)CC(c3ccccc3)C2)cc1 (centres undefined)	-23
COCCNC(=S)Nc1ccc(S(=O)(=O)Nc2cnc3ccccc3n2)cc1	-10
C=CCNC(=O)c1ccc2c3n(nc2c1)-c1ccc(C)cc1CO3	-14
NS(=O)(=O)c1ccc(S(=O)(=O)N2CCN(C3CCCC3)CC2)cc1	-6
CN(C)S(=O)(=O)c1ccc(C(=O)Nc2cc(=O)n(C)c(=O)n2C)cc1	-23
O=C(NCCc1c[nH]c2ccccc12)C1CCN(Cc2ccc(Br)cc2)CC1	-9
COc1ccc([N+](=O)[O-])cc1NC(=O)CSCc1ccccc1	-24
CC1CCc2c(sc3nc(CN4CCOCC4)nc(Sc4ccccc4)c23)C1 (centres undefined)	-16
CC(NC(=O)NC(=O)c1ccc(Cl)cc1Cl)C1CC1 (centres undefined)	8
COc1cccc(CNC(=O)CCCCCNC(=O)N2CCn3c2nc2ccccc23)c1	-25
CC(C)NC(=O)CN1CCN(C(=O)c2ccc3oc(CCCc4ccccc4)nc3c2)CC1	-6
CN1CCCC1c1cccnc1 (centres undefined)	-4
COc1ccc(NC(=S)N(CCN2CCOCC2)Cc2cc3cc4c(cc3[nH]c2=O)OCCO4)cc1	11
CS(=O)(=O)N(CC(=O)NCCSc1ccccn1)c1ccc(F)cc1	-15
COc1ccc(S(=O)(=O)N[C@@H](Cc2ccccc2)C(=O)N2CC[C@@]3(O)CCCC[C@H]3C2)cc1	-26
Cn1nc(C(F)(F)F)c(-c2ccccc2)c1NC(=O)CSCC(=O)O	-7
COc1cc2c(c(OC)c1)C(c1cccc(OC)c1OC)CC(=O)N2 (centres undefined)	-7
Cc1ccc(C2=NCCn3c2c2ccc([N+](=O)[O-])cc2[n+]3[O-])cc1	-5
O=C(c1ccco1)N1CCN(Cc2nnnn2CC2CCCO2)CC1 (centres undefined)	-1
COc1ccc(CC(=O)NCc2nnc(SCC(=O)c3ccc(OC)cc3)n2C)cc1	-3
Cc1c(C(=O)NCc2cccnc2)oc2ccc(S(=O)(=O)N3CCC4(CC3)OCCO4)cc12	-12
O=C(O)C[C@@H](O)C(=O)O	-4
O=C(Nc1ccc(F)cc1)c1sccc1SCc1cccc(C(F)(F)F)c1	-10
Cc1cc(C)c(S(=O)(=O)Nc2ccc(O)cc2)cc1C	-11
CN1CCc2c(c3c(n2C)CCN(C)C3c2ccc(F)cc2)C1c1ccc(F)cc1 (centres undefined)	-22
Cc1ccc(CN(C(=O)c2ccc([N+](=O)[O-])cc2)C2CCS(=O)(=O)C2)o1 (centres undefined)	-4

A run of entries from the list above:
mol	OX1R antagonist
COc1ccc(CC(=O)NCc2nnc(SCC(=O)c3ccc(OC)cc3)n2C)cc1	-3
Cc1c(C(=O)NCc2cccnc2)oc2ccc(S(=O)(=O)N3CCC4(CC3)OCCO4)cc12	-12
O=C(O)C[C@@H](O)C(=O)O	-4
O=C(Nc1ccc(F)cc1)c1sccc1SCc1cccc(C(F)(F)F)c1	-10
Cc1cc(C)c(S(=O)(=O)Nc2ccc(O)cc2)cc1C	-11
CN1CCc2c(c3c(n2C)CCN(C)C3c2ccc(F)cc2)C1c1ccc(F)cc1 (centres undefined)	-22
Cc1ccc(CN(C(=O)c2ccc([N+](=O)[O-])cc2)C2CCS(=O)(=O)C2)o1 (centres undefined)	-4

(listing goes on)
mol	OX1R antagonist
COc1ccc(N=C2S/C(=C\c3ccc(C)s3)C(=O)N2CC(C)C)cc1	-20
Cc1ccc(C(CC(=O)O)Nc2nc(N3CCCCC3)nc(N3CCCCC3)n2)cc1 (centres undefined)	-23
CCN(CC)CCOc1cc2c(nn1)Oc1ccccc1N2C	-15
COc1ccc(C(=O)c2ccc(OC)c(OC)c2)cc1	-6
Cc1[nH]c2ccccc2c1CCC(N)=O	-16
Cc1ccc(NC(=S)NCC2CCCO2)c(OC(F)F)c1 (centres undefined)	0
CCOc1ccc(C(=O)NN2C(=S)NC(C)(C)C=C2C)cc1	-7
O=C(CSc1nnc(Cc2ccccc2)o1)c1ccc(F)cc1	-11
CCC(=O)Nc1ccccc1C(=O)OCc1ccc(C(=O)c2ccccc2)cc1	-33
COC(=O)c1cn(CCOc2ccccc2F)c2ccccc12	-18
CCC(c1nnnn1C1CCCCC1)N1CCN(C2CCCC2)CC1 (centres undefined)	-23
CN(C)c1[nH]c(=O)c(C#N)c2c1CCN2Cc1ccccc1	4
O=C(O)c1ccc(Cl)c(S(=O)(=O)N2CCCCCC2)c1	-9
CC1CCCN(C(=O)C(=O)Nc2ccc3nc4n(c(=O)c3c2)CCCCC4)C1 (centres undefined)	-23
CCN(C(=O)C1CCCCC1)c1nnc(-c2cccnc2)s1	-18
Cc1ccc(C(=O)Nc2sc3c(c2C#N)CCCCC3)cc1C	-22
O=C(/C=C/c1ccccc1)c1ccccn1	-24
O=C1/C(=C/c2cccnc2)Oc2cc(OS(=O)(=O)c3ccc(Cl)cc3)ccc21	-11
COC(=O)CCc1c(C)c(C#N)c2nc3ccccc3n2c1N1CCCC1	-27
CC(=O)Nc1ccc(OC(=O)COc2ccc(Br)cc2)cc1	-3
Cc1ccc(S(=O)(=O)N/N=C/c2cnn(C)c2C)cc1	-21
CCn1nnc2cc(C(=O)NCCc3ccccc3F)ccc21	-7
NC(=O)c1ccc(N2CCOCC2)nc1	-1
CCSc1nsc(SCC)c1C(N)=O	-13
CC(OC(=O)Cc1coc2ccc3ccccc3c12)C(=O)Nc1ncc(Cl)cc1Cl (centres undefined)	-26
O=C(N/N=C/c1ccoc1)c1cc(Br)ccc1O	-14
O=C(CSc1ccc2nnc(-c3ccncc3)n2n1)Nc1ccc2c(c1)OCO2	-1
COc1cccc(N2CC(C(=O)Nc3nnc(SCc4ccccn4)s3)CC2=O)c1 (centres undefined)	-18
CN(Cc1ccccc1)CC(O)COc1ccc(CNCc2cccnc2)cc1 (centres undefined)	-21
COc1cccc(NC(C)=[N+](C)CCNS(=O)(=O)c2ccc(Cl)cc2)c1	-8
O=C(O)c1ccc(Oc2c(C(F)(F)F)oc3cc(O)ccc3c2=O)cc1	-17
COCCNCCOCCOc1ccc(Cl)c(C)c1	-19
COCCn1nnnc1C(c1cc2cc(OC)c(OC)cc2[nH]c1=O)N1CCN(c2ccc(O)cc2)CC1 (centres undefined)	7
O=C(Cc1ccccc1)Nc1ccccc1CO	-10
CCOc1ccc(NC(=O)C2CCCN(S(=O)(=O)c3cnc[nH]3)C2)cc1 (centres undefined)	-6
